High-throughput results deposited in PubChem BioAssay by ICCB-Longwood Screening Facility, Harvard Medical School.
Sa helicase inh – blocks Staphylococcus aureus DNA helicase; purified S. aureus helicase, fluorescence unwinding assay; about half of the hits fall short of the stated cut; inhibition, %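 (tested at about 80 µM)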; actives 0.05% (n = 120,000);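 active = both duplicates at 50% or more, or one of them with a favoured structure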;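 also: 0% = mean of negative control wells and 100% = mean of positive control wells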
MgrA DNA FP – modulators of Staphylococcus aureus MgrA DNA binding. actives 0.13% (n = 84,000). fluorescence polarization. inhibition, %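 (about 10 µg/mL by stock and volumes)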;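 active = above 50% in either of two replicates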;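 also: 0% = protein plus DNA without compound and 100% = DNA alone without protein; higher means less MgrA bound to DNA so lower polarization; one replicate is shown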
* marks the source's active call; other numbers are inactive results; · = not tested or not shown; & = joins results of further samples. Not all compounds are listed; the hit share may differ from the screen's.

1	CC(C)N(CCc1ccncc1)C(=S)NCC1CCCO1 (configuration not stated)
2	CONC(=O)Nc1ccc(C)cc1
3	C/C(=N/NC(=O)c1ccoc1C)c1ccc(NC(=O)c2ccco2)cc1
4	CCOC(=O)/C=C(\C)N1CCN(c2ccccc2)CC1
5	CCOc1ccc(NC(=O)COc2ncnc3ccccc23)cc1
6	CC1CN(c2nnnn2-c2ccccc2)CC(C)O1 (configuration not stated)
7	COC(=O)c1sccc1NC(=O)c1nc(-c2ccc(Cl)cc2)n2c1CCCCC2
8	CSc1cccc(NC(=O)CC#N)c1
Compound | 1 | 2 | 3 | 4 | 5 | 6 | 7 | 8
Sa helicase inh | -17.0 | 18.0 | 6.0 | -5.0 | -5.0 | -17.0 | -27.0 | 2.0
MgrA DNA FP | 1.1 | · | 2.0 | · | · | · | · | 1.2

9	Cc1cc(O)c(C=Nc2ccccc2Br)c(=O)o1
10	CCOC(=O)CC(Sc1ccccc1N)c1cc(OC)c(OC)c(OC)c1 (configuration not stated)
11	CCC(=O)Nc1nc2nc(-c3ccccc3)cc(=O)n2[nH]1
12	CCN(CC(=O)NCc1cccs1)C(=O)c1cc2c(s1)CCCC2
13	COC(=O)C1=C(C)NC2=C(C(=O)CCC2)C1c1ccccc1N1CCOCC1 (configuration not stated)
14	COc1c(-c2ccc(C)cc2)nc2ccccn12
15	CCOC(=O)c1cc2cc(-c3c(C)oc4cc(O)ccc4c3=O)ccc2o1
16	CCOC(=O)c1ccccc1NC1OC(=O)c2ccccc21 (configuration not stated)
Compound | 9 | 10 | 11 | 12 | 13 | 14 | 15 | 16
Sa helicase inh | 17.0 | · | 5.0 | -5.0 | · | -15.0 | -9.0 | 19.0
MgrA DNA FP | · | -1.9 | · | · | 3.3 | · | · | ·

17	COc1ccc(S(=O)(=O)N(CCC#N)CCN2CCOCC2)cc1Br
18	COc1ccc(-c2occ(C(=O)O)c2C(=O)O)cc1
19	COc1ccc2c(c1)c1c(c(=O)n(-c3ccc(C)cc3)c(=O)n1CC(=O)NCC1CCCO1)n2C (configuration not stated)
20	CC(C)Cn1c(C(C)NC(=O)c2ccccc2)nc2ccccc21 (configuration not stated)
21	CC(C)(C)c1cc2ncnc(NC3CCN(Cc4ccccc4)CC3)c2s1
22	COC(CNC(=O)c1ccc2c(c1)N(Cc1ccccc1F)C(=O)c1ccccc1S2=O)OC (configuration not stated)
23	C=CCNC(=O)c1cc2c(=O)n3ccccc3nc2n(CCC)c1=N
24	CCCN(CCC)C(=O)Cn1c(=O)oc2cc(S(=O)(=O)N3CC(C)CC(C)C3)ccc21 (configuration not stated)
Compound | 17 | 18 | 19 | 20 | 21 | 22 | 23 | 24
Sa helicase inh | -10.0 | -10.0 | 7.0 | -13.0 | · | 11.0 | 13.0 | 8.0
MgrA DNA FP | · | · | · | · | 3.4 | 1.5 | 2.9 | 1.7

25	O=C(Cc1ccccc1)c1c[nH]c(C(=O)NCCCn2ccnc2)c1
26	C/C=C/c1ccc(OC)c(OC(C)=O)c1
27	COc1ccccc1Nc1ncc(-c2cccs2)s1
28	CSc1nc2cc(-c3ccccc3)nn2c(N)c1S(=O)(=O)C(C)C
29	COc1cc(C(F)(F)F)cc(C(F)(F)F)c1C(N)=O
30	N#Cc1ccccc1CSC1=NCCS1
31	Cc1ccc(S(=O)(=O)Nc2ccccc2-c2nnc(-c3ccc(Cl)cc3)o2)cc1
32	CC(=O)Nc1ccc(Cl)cc1C(=O)O
Compound | 25 | 26 | 27 | 28 | 29 | 30 | 31 | 32
Sa helicase inh | · | -7.0 | -12.0 | · | · | -6.0 | 11.0 | 11.0
MgrA DNA FP | -4.7 | 3.9 | · | 0.4 | 2.1 | 0.6 | · | -5.6

33	C=C(C)CC1C(=O)N(S(=O)(=O)c2ccc(Cl)cc2)N=C1C (configuration not stated)
34	Cc1cc(C)cc(C(=O)Nn2cnnc2)c1
35	CCOC(=O)c1c(C)n(-c2ccccc2)c2c1cc(OC(=O)c1ccc([N+](=O)[O-])cc1)c1ccccc12
36	CC1CCN(C(=O)c2cccc(-c3nnc(-c4ccccc4)o3)c2)CC1
37	CC(c1ccco1)N(C(=O)c1ccccc1F)c1ccccn1 (configuration not stated)
38	O=C(c1ccccc1)C1CCN(c2ccc(C(F)(F)F)cc2[N+](=O)[O-])CC1
39	CCC(=O)Nc1ccccc1C(=O)N1CCCC1
40	COc1nc(N(C)C)nc(N(C#N)CN2C(=O)c3ccccc3S2(=O)=O)n1
Compound | 33 | 34 | 35 | 36 | 37 | 38 | 39 | 40
Sa helicase inh | 10.0 | -15.0 | · | 3.0 | -16.0 | · | 12.0 | 2.0
MgrA DNA FP | · | 0.2 | -2.0 | -3.2 | -3.8 | 0.8 | 21.6 | 4.0

41	COc1ccccc1-c1c(C(F)(F)F)oc2c(CN3CCCCC3)c(O)ccc2c1=O
42	CSc1nn(-c2ccccc2)c(N)c1S(=O)(=O)c1ccc(Cl)cc1
43	CCC(Sc1nc2c(c(=O)[nH]1)CCC2)C(=O)Nc1ccccc1F (configuration not stated)
44	CC(=O)Oc1cc2oc(=O)cc(C)c2cc1Cl
45	O=C(CCCN1C(=O)CSc2ncccc21)NC1CCCC1
46	COc1ccc(N2CCN(C(=O)Cn3c(Cl)nc4c3c(=O)n(C)c(=O)n4C)CC2)cc1
47	CC1=CC(C)=NC2=NN=C(NC(=O)Nc3ccc(Cl)c(Cl)c3)C12 (configuration not stated)
48	CC(=O)N1c2ccccc2NC(=O)C1CC(=O)Nc1ccccc1Cl (configuration not stated)
Compound | 41 | 42 | 43 | 44 | 45 | 46 | 47 | 48
Sa helicase inh | · | · | 11.0 | -7.0 | 17.0 | 1.0 | 15.0 | 10.0
MgrA DNA FP | -3.3 | -1.2 | · | -2.2 | · | · | -1.6 | 3.0

49	CC(=O)Oc1cn(C(C)C)c2nc(C)n3c(=O)c4ccccc4nc3c12
50	CSc1ccccc1NC(=O)Nc1ccccc1
51	O=C(CN1CCOc2ccccc21)NC1CCCCCC1
52	COC(=O)c1ccc(Cn2c(Cc3ccccc3)nc3ccccc32)o1
53	CC(C)(C)NC(=O)C1C(=O)NC2(C)CC1c1ccccc1O2 (configuration not stated)
54	O=C(COC(=O)C1CCCCC1)Nc1ncc(C(F)(F)F)cc1Cl
55	CN1C(=O)c2ccc(NC3=NS(=O)(=O)c4ccccc43)cc2C1=O
56	COc1ccc(C(=O)c2cnc3cc4c(cc3c2N2CCCCC2)OCO4)cc1
Compound | 49 | 50 | 51 | 52 | 53 | 54 | 55 | 56
Sa helicase inh | -22.0 | 11.0 | 11.0 | 20.0 | 0.0 | -9.0 | -1.0 | -1.0
MgrA DNA FP | · | 0.4 | 0.5 | · | · | 1.5 | -0.8 | ·

Given tab-delimited: entries from further up
nr	Molecule	Sa helicase inh	MgrA DNA FP
52	COC(=O)c1ccc(Cn2c(Cc3ccccc3)nc3ccccc32)o1	20.0	·
53	CC(C)(C)NC(=O)C1C(=O)NC2(C)CC1c1ccccc1O2 (configuration not stated)	0.0	·
54	O=C(COC(=O)C1CCCCC1)Nc1ncc(C(F)(F)F)cc1Cl	-9.0	1.5
55	CN1C(=O)c2ccc(NC3=NS(=O)(=O)c4ccccc43)cc2C1=O	-1.0	-0.8

(cont.)
57	Cc1c(C(=O)N(C)Cc2ccccc2)oc2ccc(S(=O)(=O)N3CCCC3)cc12
58	CN(C)c1ccc(C2Nc3cc(Cl)ccc3O2)c(Cl)c1 (configuration not stated)
59	Cc1cccc(N2CN(Cc3ccco3)CNC2=S)c1
60	CCOC(=O)NCc1cc(C(=O)O)ccc1O
61	Nc1ccccc1C(=O)N/N=C/c1cc(Br)ccc1O
62	Cc1cc(C)c2c(n1)sc1c(SCC(=O)c3ccc(Br)cc3)ncnc12
63	CC(C)(C)OC(=O)/N=C(\N)n1cccn1
64	C=CCN1C(=O)C2(NC(=O)c3ccccc3N2)c2ccccc21 (configuration not stated)
Compound | 57 | 58 | 59 | 60 | 61 | 62 | 63 | 64
Sa helicase inh | 15.0 | · | 1.0 | 8.0 | · | · | -8.0 | -1.0
MgrA DNA FP | · | -1.3 | 0.2 | -1.6 | 4.8 | -1.1 | 2.4 | 0.9

65	CCCCNC(=O)c1cc2cc(CC)ccc2[nH]1
66	COCc1cc(C)nc2sc(C(=O)OC)c(N)c12
67	CN1CCN(/N=C/c2nc(-c3ccccc3)n3ccccc23)CC1
68	CN(CC(=O)O)c1ccccc1C(=O)O
69	CC1CN(C(=O)CC#N)CC(C)O1 (configuration not stated)
70	COc1cccc(NC(=O)Cn2nc(-c3ccccc3)ccc2=O)c1
71	O=C(O)CCNS(=O)(=O)c1ccc(Br)cc1
72	CCC(=O)Nc1cc(-c2nc3cc(OC)ccc3o2)ccc1C
Compound | 65 | 66 | 67 | 68 | 69 | 70 | 71 | 72
Sa helicase inh | -17.0 | 5.0 | 10.0 | 12.0 | · | 11.0 | 11.0 | 4.0
MgrA DNA FP | · | -2.0 | 3.6 | · | -1.6 | -2.5 | 0.1 | 0.9

73	O=C(NC1CCCc2ccccc21)C1=NN(c2ccccc2)C(=O)CC1 (configuration not stated)
74	CCc1nc(N)nc(N)c1-c1ccc(Cl)cc1
75	Cc1cc(C)n(CCO)c(=O)n1
76	CNC(=O)c1[nH]nc2c1CCc1ccccc1-2
77	CCN(CC)C(=O)c1cn(CCC#N)nc1-c1ccc2ccccc2c1
78	O=C1CN(c2ccccc2)C(=S)N1/N=C/c1ccc(F)cc1
79	COc1cc2c(cc1OC)CN(C(=O)C(C)(C)C)CC2
80	O=C(O)c1ccccc1C(=O)c1cc(Cl)ccc1Cl
Compound | 73 | 74 | 75 | 76 | 77 | 78 | 79 | 80
Sa helicase inh | -5.0 | · | 0.0 | 11.0 | -4.0 | 10.0 | 5.0 | -23.0
MgrA DNA FP | · | 0.7&-1.1 | · | · | -3.5 | -6.2 | · | -0.2

81	CCCNC(=O)c1ccc(SC)cc1OC
82	O=c1cc(O)nc(SCc2c(F)cccc2Cl)n1C1CCCC1
83	Cc1cc(C)cc(C(=O)Nc2ncn[nH]2)c1
84	O=S(=O)(c1ccc(S(=O)(=O)C(F)(F)F)cc1)C(F)(F)F
85	COC(=O)C(C)(N)Cc1ccc(O)cc1 (configuration not stated)
86	Cc1cc(C(F)(F)F)nc(NC(C)c2ccccc2)n1 (configuration not stated)
87	CCC(CC)NC(=O)c1cc(Cl)ccc1Cl
88	CCOC(=O)N1CCN(C(=O)Cn2cnc3c(nnn3Cc3ccc(C)cc3)c2=O)CC1
Compound | 81 | 82 | 83 | 84 | 85 | 86 | 87 | 88
Sa helicase inh | 11.0 | 20.0 | 18.0 | 32.0 | · | 35.0 | -1.0 | 11.0
MgrA DNA FP | 0.1 | · | -1.9 | · | -5.8 | · | 1.4 | ·

3 structures out of the list, ordered by length of the SMILES, smallest number first.
81	CCCNC(=O)c1ccc(SC)cc1OC
85	COC(=O)C(C)(N)Cc1ccc(O)cc1 (configuration not stated)
86	Cc1cc(C(F)(F)F)nc(NC(C)c2ccccc2)n1 (configuration not stated)
Compound | 81 | 85 | 86
Sa helicase inh | 11.0 | · | 35.0
MgrA DNA FP | 0.1 | -5.8 | ·

Continuation:
89	CN(C(=O)CSc1ccc2c(c1)OCCO2)c1c(N)n(Cc2ccccc2)c(=O)[nH]c1=O
90	CC(CCc1ccco1)NC(=O)Nc1cn(C)c(=O)c2ccccc12 (configuration not stated)
91	CC1(C)CC(CCO)CC(C)(C)N1
92	Cc1occc1C(=O)Nc1ccc(S(=O)(=O)N(C)C)cc1
93	CCN(CC)S(=O)(=O)c1ccc(F)cc1
94	O=C(Nc1ccc(OC(F)(F)F)cc1Br)c1cnccn1
95	CC(=O)Nc1ccccc1NC(=O)c1cccs1
96	Cc1ccc(NC(=O)C(c2ccccc2)N2CCc3ccccc32)cc1 (configuration not stated)
Compound | 89 | 90 | 91 | 92 | 93 | 94 | 95 | 96
Sa helicase inh | 7.0 | -8.0 | 6.0 | 6.0 | 13.0 | · | 13.0 | 14.0
MgrA DNA FP | · | · | · | 17.1 | -0.1 | -2.4 | 3.8 | 4.5

97	O=C(O)C1(NCc2ccc(F)cc2)CCCCC1
98	CCn1c(SCc2csc(CC(=O)Nc3ccc(C)cc3)n2)nnc1-c1ccco1
99	CNC(=O)c1sc(-c2ccccc2)nc1C
100	c1ccc(-n2nnnc2NCC(c2ccco2)N2CCCCC2)cc1 (configuration not stated)
101	c1ccc(-c2csc(N3CCC(c4ccccc4)C3)n2)cc1 (configuration not stated)
102	N#CCCn1c(=O)n(CCC#N)c(=O)n(CCC#N)c1=O
103	O=[N+]([O-])c1ccc(/C=C/c2ccc([N+](=O)[O-])cc2)cc1
104	O=C(CN1C(=O)c2ccccc2C1=O)N1CCN=C1c1ccccc1
Compound | 97 | 98 | 99 | 100 | 101 | 102 | 103 | 104
Sa helicase inh | 7.0 | -8.0 | · | -7.0 | -1.0 | 10.0 | · | 10.0
MgrA DNA FP | · | · | -1.2 | · | -3.8 | -1.4 | -0.3 | 0.9

Record cards, as listed above. Values in the order: Sa helicase inh	MgrA DNA FP
Cc1cc(C)c2c(n1)sc1c(SCC(=O)c3ccc(Br)cc3)ncnc12 is listed with ·	-1.1
Nc1ccccc1C(=O)N/N=C/c1cc(Br)ccc1O is listed with ·	4.8
